ClpP mod – qHTS Assay for Activators of ClpP | ATP-dependent Clp protease proteolytic subunit (Bacillus subtilis (strain 168)), P80244 | purified B. subtilis ClpP, FRET peptide cleavage, 20 min | Potency, µM (series often up to 57.5 µM), without a hit: top-dose activity change, negative = active | actives 1.9% (n = 340,000) | AID 651965, 2013; active = well fitted falling curve with a large enough effect; inconclusive = small, poorly fitted or top-dose-only effect; inactive = no such curve, though single readings can be large or run the other way; note: potency is the fitted concentration of half-maximal effect; the source files actives as falling curves though it sought activators and does not explain the sign; nearly all actives have a fitted effect of over 65% in size; many hits overshoot -100%
Target sequence (P80244 whole entry, looked up): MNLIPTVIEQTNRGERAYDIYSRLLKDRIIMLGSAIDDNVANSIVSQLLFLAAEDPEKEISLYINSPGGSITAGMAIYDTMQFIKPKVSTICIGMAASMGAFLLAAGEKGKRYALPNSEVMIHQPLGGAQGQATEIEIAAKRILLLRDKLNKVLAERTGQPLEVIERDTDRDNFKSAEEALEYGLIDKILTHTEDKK
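Buffer: 100 mM Tris/HCl pH8, 100 mM KCl, 0.05% low protease BSA, 2.5% glycerol, 0.01% Tween-20. ClpP 10 microg/mL final; 20 min RT; delta FRET normalized to ADEP and DMSO controls.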
Sfp inh – inhibitors of Bacillus subtilis Sfp phosphopantetheinyl transferase; Biochemical Sfp PPTase activity, qHTS; Potency, µM, inactives show max response, negative = inhibition, actives largely listed as inhibitors; Q9F4F7; actives 3.5% (n = 310,000); active = well fitted inhibition curve with a large enough effect; inconclusive = small, poorly fitted or top-dose-only effect, or another doubt; inactive = no such curve, though single readings can be large or run the other way;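 note: the enzyme is Sfp with the accession as filed and its product quenches rhodamine fluorescence; potency is the fitted concentration of half-maximal effect; 0% = enzyme reaction without inhibitor and -100% = no enzyme wells; top concentration of the series not given in the record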
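With Hepes-Na pH 7.6 buffer containing 10 mM MgCl2, Sfp (15 nM) modified BHQ-2-YbbR (12.5 uM) using rhodamine-CoA (5 uM). Two reads 30 minutes apart at 525/598 nm yielded each well's rate.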
gsp ag – activates gsp, the McCune-Albright syndrome mutation | gsp mutant cells, cAMP HTRF, 30 min; control for the full effect not named in the record | Potency, µM (highest dose often 76.9 µM), for inactives: top-dose activation (cAMP increase), hits mostly activators | actives 0.13% (n = 340,000) | AID 624287; active = well fitted activation curve with a large enough effect; inconclusive = small, poorly fitted or top-dose-only effect, or another doubt; inactive = no such curve, though single readings can be large or run the other way; cell line not stated here;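 note: phosphodiesterase inhibitor Ro 20-1724 added with compounds to block cAMP breakdown; potency is the fitted concentration of half-maximal effect; nearly all actives have a fitted effect of over 60% in size; about a fifth of the inactives were tested at one dose only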
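Cells stably selected in G418 were plated at 2000/well, grown 16-24 hr, then given compounds in DMSO with the PDE inhibitor […] (300 uM solution added) for 30 min at 37C; cAMP was read by HTRF.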
TRPML1 inh – human mucolipin-1 channel inhibition; Q9GZU1; TRPML1-inducible cells, Ca2+ dye fluorescence, FDSS; stronger effect = lower value; inhibition of EC80 agonist-evoked calcium signal; activity change, negative = inhibition, % (test concentration not listed); actives 0.02% (n = 390,000); in the data active means activity change below about -50%; inconclusive means about -30% to -50%; inactive means above about -30%;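 note: stimulus is agonist 54-4 at its EC80 concentration; % is set by controls: 0 for no effect and ±100 for the full control effect; compound concentration not given in the record; the text of the record puts the active cut at -80%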
Target sequence (Q9GZU1 whole entry, looked up): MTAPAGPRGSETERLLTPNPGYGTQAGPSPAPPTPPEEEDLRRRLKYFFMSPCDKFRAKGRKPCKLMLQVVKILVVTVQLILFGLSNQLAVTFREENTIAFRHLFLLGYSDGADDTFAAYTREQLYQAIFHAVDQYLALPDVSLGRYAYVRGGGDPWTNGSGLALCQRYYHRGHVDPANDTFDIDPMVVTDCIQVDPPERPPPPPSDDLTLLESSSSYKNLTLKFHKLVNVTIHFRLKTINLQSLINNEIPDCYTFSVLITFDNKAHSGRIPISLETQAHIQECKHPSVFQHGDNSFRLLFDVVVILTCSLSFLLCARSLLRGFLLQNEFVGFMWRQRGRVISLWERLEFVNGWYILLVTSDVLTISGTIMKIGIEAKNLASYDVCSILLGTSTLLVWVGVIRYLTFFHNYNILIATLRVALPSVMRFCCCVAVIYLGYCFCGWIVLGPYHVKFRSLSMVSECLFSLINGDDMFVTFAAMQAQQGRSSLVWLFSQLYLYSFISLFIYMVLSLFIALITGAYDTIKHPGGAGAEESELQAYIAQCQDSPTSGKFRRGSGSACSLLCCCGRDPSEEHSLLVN
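Tet-induced TRPML1-DL cells loaded with Ca8 no-wash calcium dye were read kinetically on FDSS. Compound addition was followed by EC80 agonist 54-4 (4 uM final); inhibition was read over 110 s.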
Menin MLL FP FL – displaces fluorescein MLL peptide from human menin | 290,000 tested, under 10 active | Fluorescence polarization, fluorescein-MLL peptide displacement from menin | FP activity change, % at 61.4 µM; inconclusive = falling polarisation curve, or a change in total fluorescence; inactive = total fluorescence flat and polarisation flat or rising; no compound was filed as active; the % refers to the polarisation; negative = inhibition;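 note: % of control where 0% means no effect; inhibitors lower the polarisation; unlabelled MLL peptide was the positive control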
TRPV1 potentiator – human TRPV1 potentiation; TRPV1-expressing cells, Fluo-8 calcium influx, capsaicin EC20 potentiation; host cell line not named in the record; control for the full effect not named in the record; Q8NER1; actives 0.02% (n = 320,000); potentiation, % at 8.33 µM; active means potentiation above 80%; inconclusive means 30% to 80%; inactive means below 30%; note: 0% is about no effect
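Cells expressing TRPV1 were dye-loaded with Fluo-8 and read kinetically: 10 s baseline, 3 min after compound (agonist portion), then 2 min after EC20 capsaicin (allosteric enhancer portion). Calcium-bound dye fluorescence at 480/520 nm.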
gsp antagonist – gsp mutant antagonism; actives 0.4% (n = 340,000); Potency, µM (series often up to 76.9 µM), without a hit: top-dose activity change, negative = inhibition, actives largely listed as inhibitors; AID 624288; gsp-mutant cells, cAMP HTRF, 30 min; control for the full effect not named in the record; active = falling curve of any shape with a large fitted effect; inconclusive = falling curve, mostly with a smaller effect; inactive = flat or rising curve; cell line not stated here;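 note: intracellular cAMP measured with PDE inhibitor Ro 20-1724 present during compound exposure; potency is the fitted concentration of half-maximal effect; % is set by controls: 0 for no effect and ±100 for the full control effect; nearly all actives have a fitted effect of over 65% in size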
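G418-selected cells were plated in DMEM/10% FBS for 16-24 h at 37C, then treated with compounds plus the PDE inhibitor […] (300 uM solution added) for 30 min at 37C. Intracellular cAMP was measured by HTRF after 30 min lysis at room temperature.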
An asterisk follows results filed as active; ? = inconclusive; / = not tested or not shown; & = joins results of further samples; [ ] = remark or other dose. Hits appear at their usual frequency (roughly 4.9% active in at least one column).

SMILES,gsp ag,TRPV1 potentiator,gsp antagonist,Sfp inh,TRPML1 inh,Menin MLL FP FL,ClpP mod
Cc1ccccc1NC(=O)CCc1nnc2ccc(N3CCC4(CC3)OCCO4)nn12,?,3,11%,11%,-22,/,0.0%
CC(C)C(C(=O)N1CCN(Cc2ccccc2)CC1)c1ccccc1 (stereo not drawn),2%[15.4 µM],-2,9%,6%,-5,-3.1,-0.3%
CC(C)[C@H]1COCCS(=O)(=O)N1Cc1ccccc1-c1cccc2c1oc1ccccc12,/,/,-9%,/,-11,/,-12%
Cc1ccnc(NS(=O)(=O)c2ccccc2)n1,2%,-20,3%,8%,12,-0.9,-4.2%
COc1ccc(NC(=O)COC(=O)C2CCCCC2)c([N+](=O)[O-])c1,-3%[15.4 µM],-13,6%,-9%,-16,2.0,-1.9%
Cc1ccc2nsnc2c1S(=O)(=O)Nc1cccc2nsnc12,10%,12,-9%,-9%,16,2.5,0.7%
O=C(NCCc1c[nH]c2ccccc12)c1ccc(Cl)cc1,-4%,-14,-6%,8%,-5,0.7,-0.2%
CCCCCOc1ccc(NC2=CC(=O)CCC2)cc1,-3%[15.4 µM],-22,5%,-5%,17,1.6,-0.8%
COc1ccc(/C=N\NC(=O)c2cccc(F)c2)cc1COc1ccccc1,0%[15.4 µM],/,-5%,/,11,/,/
Cc1nc2ccc(NC(=O)c3cccc(S(=O)(=O)N(C)c4ccccc4)c3)cc2s1,-69%[inhibitor],2,35µM*,9%,-15,-2.0,-17%
CC(C)N1C(=O)/C(=C\c2nc3ccccc3c(=O)n2-c2ccccc2)c2ccccc21,-5%,-6,20%,-4%,7,/,0.7%
Cc1ccc(-n2nc(C)c3c(C)c(CCC(=O)NCc4ccccc4)c(C)nc32)cc1,?,8,-1%,9%,-15,0.3,5.4%
CC(C)(C)C1CCC(=NNC(=O)C(=O)NC2CCCCC2)CC1 (stereo not drawn),-14%,-3,3%,-21%,8,4.3,3.4%
O=C(CCc1c[nH]c2ccccc12)NCCc1ccc(Cl)cc1,?,0,-5%,-2%,-14,-2.4,/
Cc1ccc(S(=O)(=O)N2CCCCC2)cc1NC(=O)COc1ccccc1,-12%,/,-12%,/,-1,/,/
Cc1nc2ncnn2c(C)c1CCC(=O)N1CCCCC1,?,8,12%,8%,-3,-0.7,2.5%
O=C(COc1ncnc2scc(-c3ccc(Cl)cc3)c12)NCc1ccco1,-9%,10,-6%,-4%,-13,5.9,1.1%
CC1CCN(C(=O)Cn2c(=O)c3cccn3c3ccccc32)CC1,?,12,-5%,9%,-4,/,-19%
COc1ccc(-c2nn(-c3ccccc3)cc2/C=N/Nc2ccc(S(N)(=O)=O)cc2[N+](=O)[O-])cc1OC,-3%[15.4 µM],4,-6%,15%,5,-4.5,/
CN(c1ccccc1)S(=O)(=O)c1ccc(NC(=S)NC(=O)c2ccccc2)cc1,0%,-4,-7%,-6%,14,2.9,-3.7%

SMILES,gsp ag,TRPV1 potentiator,gsp antagonist,Sfp inh,TRPML1 inh,Menin MLL FP FL,ClpP mod
O=c1nccc(NCc2ccco2)[nH]1,1%,0,-1%,-3%,-2,5.3,2.0%&-0.4%
COc1ccc2c(c1)O[C@@H](c1cccc(C(F)(F)F)c1)[C@H](OC(=O)NCCc1ccc(OC)c(OC)c1)C2=O,/,-12,/,?,/,1.3&0.7,/
O=C(CSc1nc2ncc(Br)cc2[nH]1)c1cccc([N+](=O)[O-])c1,-41%[inhibitor],-7,-2%,7%,-4,5.3,1.1%
C/C(=N\NC(=O)COc1ccccc1[N+](=O)[O-])c1cccs1,18%[15.4 µM],-8,-38%,8%,51,-1.1,/
O=C(N/N=C/c1cc(Cl)cc([N+](=O)[O-])c1O)c1ccccc1NS(=O)(=O)c1cccs1,-63%[inhibitor],28,-22%,8%,43,17,0.3%
CN(C)c1ccc(C=C2C=CC=C2)cc1,3%[15.4 µM],/,-5%,/,-9,/,0.0%&-1.7%
Cc1c(CCCN)c2ccccc2n1Cc1ccccc1,?,24,19%,-9%,/,1.1,-14%
CCOC(=O)N1CCN(C(=S)Nc2ccc(C)cc2C)CC1,11%[15.4 µM],10,6%,-20%,3,6.8,/
CCN(Cc1ccccc1)C(=O)CN1C(=O)COc2ccc(S(=O)(=O)NC3CCCC3)cc21,-20%,5,-14%,6%,15&9,-2.5,0.2%&1.1%
C=CCc1cc(C=Nc2ccc(N3CCOCC3)cc2)cc(OCC)c1O,-23%,/,?,/,-1,/,/
Cc1nc2c(sc(=S)n2Cc2ccco2)c(=O)n1CC(=O)Nc1ccc(F)cc1,-14%,-3,7%,?,-1,-1.3,-0.2%
Oc1c(Br)cc(Br)cc1/C=N/n1c(-c2ccccc2)n[nH]c1=S,4%,-4,?,?,13,26,-8.6%
Cc1ccc(N=C2NC(=O)/C(=C\c3ccco3)S2)cc1,-21%,4,-5%,-20%,-1,?,2.7%
CC(=O)CCn1cnc([N+](=O)[O-])n1,-4%[15.4 µM],-6,10%,10%,-4,-3.0,/
O=C(Cc1ccc(-c2ccccc2)cc1)Nc1ncccc1O,29%,4,-11%,9%,11,12,-8.1%
CCCCCCCCOC(=O)C(NC(=O)CCC(=O)Nc1ccc(S(N)(=O)=O)cc1)C(O)c1ccccc1 (stereo not drawn),20%,6,5%,23%,0,-0.9,-2.3%
O=C(c1cc(Cl)ccc1Cl)N1CCOCC1,7%,-12,5%,5%,1,4.0,0.7%
CC(=O)c1ccccc1NC(=O)c1ccc(OCc2c(C)noc2C)cc1,21%,/,?,/,-9,/,/
Cc1ccc(S(=O)(=O)N(CCCO)CC(O)CON=C2c3ccccc3-c3ccccc32)cc1 (stereo not drawn),-2%,-12,-9%,-1%,6,1.4,0.8%
Cc1oc(-c2ccc(Cl)cc2)nc1CS(=O)CC(=O)NCc1ccccn1 (stereo not drawn),?,11,14%,-13%,14,/,-12%

SMILES,gsp ag,TRPV1 potentiator,gsp antagonist,Sfp inh,TRPML1 inh,Menin MLL FP FL,ClpP mod
CCCNC(=O)c1ccc2c(c1)nc(C)n2-c1cccc(C)c1,-12%,0,9%,-3%,-19&-6,-7.1,-2.3%
CC1=C(C)CC(C(=O)NNC(=O)c2csc3c2CCC(C(C)(C)C)C3)C(C(=O)O)C1 (stereo not drawn),-2%,5,5%,8%,26,4.2,-0.3%
CCOC(=O)Cn1c(CN(Cc2ccccc2)Cc2ccccc2)nc2c1c(=O)n(C)c(=O)n2C,-26%,-12,-17%,-11%,1,-0.5,0.9%
CC(C)c1ccc(C2(C)NC(=O)N(C(C)C(=O)Nc3ccc(N4CCOCC4)cc3)C2=O)cc1 (stereo not drawn),10%[15.4 µM],-5,-13%,/,-2,/,/
O=C(c1cccc(S(=O)(=O)N2CCCC2)c1)c1nnc(-c2ccncc2)o1,6%,5,0%,18%,4,-2.5,-0.3%
O=C(CNC(c1ccccc1)c1ccccc1)Nc1ccccc1Br,-2%,-11,-21%,?,15,4.4,-1.1%
CCN(CC)S(=O)(=O)c1ccc(NC=C(C#N)C#N)cc1,17%[15.4 µM],4,-20%,15%,9,-0.7,/
O=C(Nc1cc(C(F)(F)F)ccc1F)C1CCC1,1%,-6,0%,7%,37,0.8,1.3%
O=C(CNC(=O)c1cccs1)N=Nc1c(O)[nH]c2ccc(Br)cc12,9%,4,-4%,12%,-14,-0.6,/
CCC(C)C(=O)Nc1cc([N+](=O)[O-])ccc1Cl (stereo not drawn),?,11,-12%,17%,-8,11,1.0%
CCCCNC(=O)/C=C/c1ccc(S(=O)(=O)Nc2ccc(OC)cc2)cc1,-14%,0,-15%,2%,10,-3.0,/
Cc1cccc2cc(CN(Cc3ccccc3)C(=O)c3cccc(F)c3)c(Cl)nc12,-59%,-4,-7%,4%,6,5.4,-13%
CC(C)Nc1ncnc2[nH]ncc12,20%,/,1%,/,-2,/,/
COc1ccc(/C=N/OCC(=O)N2CCCC2)c(OC)c1,5%[15.4 µM],9,8%,11%,-8,3.5,-12%
CCC(=NCCc1c(C)[nH]c2ccccc12)C1=C(O)CC(c2ccccc2)CC1=O (stereo not drawn),-19%,13,-24%,10%,15,5.5,-1.8%
CC(C)(C)OC(=O)[C@H](Cc1ccccc1)NC(=O)c1nc[nH]c1C(=O)N1CCN(C(=O)OC(C)(C)C)CC1,/,-8,0%,18%,-7,1.6,1.1%
Cc1n[nH]c(=S)n1-c1ccc(Cl)cc1,-2%[15.4 µM],9,7%,-17%,9,-2.5,?
Cc1ccc([N+](=O)[O-])c(OCCN2C(=O)NC(C)(C)C2=O)c1,2%,4,3%,20%,-15,-2.9,2.9%
CN(Cc1ccc(OC(F)F)cc1)C(=O)c1ccc(S(=O)(=O)N(C)c2ccccc2)cc1,-1%,-20,-10%,/,-7,/,-0.2%
O=C1CCCN1Cc1ncnn1-c1ccccc1,1%,5,7%,16%,1,3.1,1.1%

SMILES,gsp ag,TRPV1 potentiator,gsp antagonist,Sfp inh,TRPML1 inh,Menin MLL FP FL,ClpP mod
O=C(NCCCn1ccnc1)c1sc2cccc(F)c2c1Cl,16%,8,4%,6%,22,-2.8,-3.5%
Cc1c(NC(=O)c2ccc(Cl)s2)c(=O)n(-c2ccccc2)n1C,-5%,-11,11%,7%,-7,-4.6,-19%
CC(=O)NC(N(C#N)c1nc(Cl)nc(N(C)C)n1)C(Cl)(Cl)Cl (stereo not drawn),3%[15.4 µM],24,8%,8%,39,1.3,-1.8%
Cc1ccc(S(=O)(=O)N(C)C)cc1NC(=O)CCNC(=O)c1ccco1,25%,-3,13%,15%,18,-1.6,/
CCC(=O)N1CCN(c2cc(C)ccc2C)CC1,28%,-25,-13%,?,30,1.5,-1.8%
Cc1cccc(N2CCN(S(=O)(=O)c3ccc4c(c3)C(C)(C)C(=O)N4C)CC2C)c1 (stereo not drawn),9%,1,-17%,3%,6,-0.2,0.2%
